HIV peptide binding = inhibitors of HIV fusion peptide binding, primary screen, biochemical, uHTS, fluorescence dequenching (AID 1986) | cell-free peptide binding, fluorescence dequenching, 30 min; higher % means a stronger effect | one-dose inhibition, % at 20 µM; IC50 in µM for titrated hits | hit rate 0.3% among 290,000; in the data active = inhibition mostly above about 52%, no sharp cut-off; inactive = mostly below about 76%; also: some results filed as inactive read as strong as hits
NOD1 inhibition = NOD1 signaling inhibitors, primary screen, cell-based, luminescence, uHTS (AID 1578). NOD1-driven NF-kB luciferase reporter cells, luminescence; higher % means a stronger effect. one-dose inhibition, % at 4 µM; EC50 in µM for titrated hits. hit rate 1% among 290,000; in the data active = inhibition mostly above about 36%, no sharp cut-off; inactive = mostly below about 34%;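 also: HEK-293T reporter cells stimulated with the NOD1 agonist gamma-tri-DAP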
HEK293 NOD2/NF-kB = NOD2 signaling inhibitors, cell-based, luminescence, uHTS, HEK293 (AID 1566); hit rate 0.63% among 290,000; HEK293 NOD2/NF-kB luciferase reporter, luminescence; higher % means a stronger effect; inhibition, % at 4 µM; hits with a dose series show EC50 in µM; in the data active = inhibition above about 50%; also: many of its hits are not listed in these tables
GPR55 beta-arrestin = GPR55 agonists via beta-arrestin recruitment, primary screen, imaging, U2OS cells, beta-arrestin-GFP redistribution (AID 1961). G-protein coupled receptor 55 (Homo sapiens). U2OS GPR55 beta-arrestin-GFP redistribution imaging; higher % means a stronger effect. one-dose activation, % at 10 µM; EC50 in µM for titrated hits. hit rate 0.048% among 290,000;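 active = activation above 40% with more than 50 cells counted in the well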;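 also: U2OS osteosarcoma cells stably expressing GPR55 and beta-arrestin-GFP; plate controls were DMSO negative control for no effect and LPI positive control for full effect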
GPR55 LPI antagonism = GPR55 antagonists blocking LPI-driven arrestin recruitment, primary screen, imaging, U2OS, beta-arrestin-GFP, LPI agonist (AID 2013); G-protein coupled receptor 55 (Homo sapiens); U2OS GPR55 beta-arrestin-GFP translocation imaging, LPI antagonism; higher % means a stronger effect; one-dose inhibition, % at 10 µM; IC50 in µM for titrated hits; hit rate 0.13% among 290,000;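 active = spots per cell inhibited over 60%, with over 100 cells counted and total cytoplasm intensity under 500,000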;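 also: U2OS cells stably carrying GPR55 and arrestin-GFP stimulated by 5 µM LPI near EC80; imaged beta-arrestin-GFP aggregate spots per cell after agonist stimulation; plate controls were LPI-stimulated DMSO wells for no effect and DMSO wells without LPI for full effect; some results filed as inactive read as strong as hits; confirmed hits need IC50 under 10 µM and bright autofluorescent wells are also inconclusive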
Rac1 GTP hydrolysis = MgcRacGAP GTPase-activating activity inhibitors, confirmation, biochemical, ADP Hunter fluorescence; Rac GTPase-activating protein 1 (Homo sapiens); MgcRacGAP-stimulated Rac1 GTP hydrolysis, ADP Hunter fluorescence; higher % means a stronger effect; GST-tagged Rac1 F28L mutant substrate; inhibition, % at 30 µM, or IC50 in µM where a hit was titrated; hit rate 0.6% among 340,000;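 active = first-screen hits whose inhibition reached a set limit at any dose in the follow-up dose series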;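 also: fluorescence reports GDP produced by GAP-driven GTP hydrolysis; strong numbers were not always called active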
Large T inhibition = SV40 large T antigen inhibitors, biochemical (AID 1903) | SV40 large T antigen ATPase/helicase inhibition assay; higher % means a stronger effect | one-dose inhibition, % at 20 µM; IC50 in µM for titrated hits | hit rate 0.39% among 310,000; in the data active = a potency from the dose series; also: strong numbers were not always called active
Starred values were filed as active, the others as inactive; . = not tested or not shown; & = joins results of further samples.

Abbreviations: A = HIV peptide binding; B = NOD1 inhibition; C = HEK293 NOD2/NF-kB; D = GPR55 beta-arrestin; E = GPR55 LPI antagonism; F = Rac1 GTP hydrolysis; G = Large T inhibition
1. CC(=O)CC(c1ccc([N+](=O)[O-])cc1)c1c(O)c2ccccc2oc1=O (stereo unspecified)
  A: 3.8%; B: -26%; C: 7%; D: 1.7%; E: -2%; F: 1%; G: 18%

2. C#CC1(O)CCC2C3CCC4=C(CCC(=O)C4)C3CCC21C (stereo unspecified)
  A: .; B: .; C: .; D: .; E: .; F: 0%; G: .

3. CCC(=O)O[C@@H]1CC(=O)O[C@H](C)CC=CC=C[C@@H](O)[C@H](C)C[C@H](CC=O)[C@H](O[C@H]2O[C@H](C)[C@@H](O[C@H]3C[C@@](C)(O)[C@@H](OC(=O)CC)[C@H](C)O3)[C@H](N(C)C)[C@H]2O)[C@H]1OC
  A: 1.9%; B: -2%; C: 8%; D: -0.1%; E: 2%; F: .; G: .

4. Nc1ccc(S(=O)(=O)Nc2ccccn2)cc1
  A: 1.0%; B: -9%; C: 10%; D: -0.1%; E: 3%; F: 0%; G: 4%

5. CC(C)NCC(O)c1ccc(NS(C)(=O)=O)cc1 (stereo unspecified)
  A: -1.2%; B: 1%; C: 1%; D: 0.3%; E: 0%; F: 7%; G: 11%&2%

6. Cn1nnc(NC(=O)c2ccco2)n1
  A: 0.6%; B: .; C: 6%; D: -0.3%; E: 16%; F: 3%; G: 10%

7. CCN(CC)CC(=O)Nc1c(C)cccc1C
  A: 1.1%; B: -34%; C: 4%; D: -0.2%&0.6%; E: -1%&-6%; F: 7%&5%&1%; G: -2%&8%&22%

8. CC(=O)C1CCC2C3CCC4CC(=O)CCC4(C)C3C=CC12C (stereo unspecified)
  A: .; B: .; C: .; D: .; E: .; F: -10%; G: .

9. CC(C)NCC(O)c1ccc(O)c(O)c1 (stereo unspecified)
  A: -0.9%; B: -12%; C: 2%; D: -0.1%; E: -10%; F: -14%; G: 10%

10. CO[C@H]1C=CO[C@@]2(C)Oc3c(C)c(O)c4c(O)c(c5c(nc6cc(C)ccn65)c4c3C2=O)NC(=O)C(C)=CC=C[C@H](C)[C@H](O)[C@@H](C)[C@@H](O)[C@@H](C)[C@H](OC(C)=O)[C@@H]1C
  A: -3.8%; B: -4%; C: 18%; D: -0.5%; E: 13%; F: .; G: 9%

11. CC(C)n1c(/C=C/[C@H](O)C[C@H](O)CC(=O)O)c(-c2ccc(F)cc2)c2ccccc21
  A: .; B: .; C: .; D: .; E: .; F: 10%; G: .

12. CCOC(=O)CN1C(=O)S/C(=C/c2ccc(N3CCCCC3)o2)C1=O
  A: 1.3%; B: .; C: -5%; D: -0.1%; E: 18%; F: 18%; G: -41%

13. O=C(CC1SC(N2CCCCC2)=NC1=O)Nc1cccc(C(=O)O)c1 (stereo unspecified)
  A: 0.1%; B: .; C: 26%; D: 0.1%; E: 3%; F: 6%; G: 1%

14. CC1=NS(=O)(=O)c2cc(Cl)ccc2N1
  A: -1.2%; B: 36%; C: 6%; D: -0.2%; E: 4%; F: 4%; G: 3%&19%

15. Nc1ccn([C@@H]2O[C@H](CO)[C@@H](O)[C@H]2O)c(=O)n1
  A: .; B: .; C: .; D: .; E: .; F: -7%; G: .

16. CNCC[C@H](Oc1cccc2ccccc12)c1cccs1
  A: -0.8%; B: -9%; C: 3%; D: -0.2%; E: 7%; F: -5%; G: 22%&16%&-1%

17. OCC(O)[C@@H](O[C@H]1O[C@H](CO)[C@@H](O)[C@H](O)[C@H]1O)[C@H](O)[C@@H](O)CO (stereo partly specified)
  A: .; B: .; C: .; D: .; E: .; F: 2%; G: 2%

18. N#Cc1ccc(-c2ccc(F)cc2)nc1Sc1ccc(F)cc1
  A: -1.7%; B: .; C: 10%; D: -0.2%; E: 4%; F: -2%; G: -3%

19. CC(=O)Nc1ccc(S(=O)(=O)N2CCN(c3cc4c(cc3[N+](=O)[O-])n(C)c(=O)n4C)CC2)cc1
  A: -3.2%; B: .; C: 18%; D: -0.2%; E: 15%; F: 9%; G: 1%

20. C=C(CC)C(=O)c1ccc(OCC(=O)O)c(Cl)c1Cl
  A: 15%; B: -44%; C: -14%; D: -0.2%; E: 19%; F: 5%; G: >100µM*

21. CCCCc1nc(Cl)c(CO)n1Cc1ccc(-c2ccccc2-c2nnn[nH]2)cc1
  A: .; B: .; C: .; D: .; E: .; F: 0%; G: 8%

22. CC(C)Oc1ccc2c(=O)c(-c3ccccc3)coc2c1
  A: -1.6%&0.4%; B: -52%&-11%; C: -90%&-153%; D: -0.2%&0.2%; E: 0%&6%; F: 3%; G: 5%&13%&7%

23. CC12C=CC(=O)C=C1CCC1C2C(=O)C[C@@]2(C)C1CCC2(O)C(=O)CO (stereo partly specified)
  A: .; B: .; C: .; D: .; E: .; F: 6%; G: 19%

24. COc1ccc(C(=O)NC(NC(=S)Nc2ccc(S(N)(=O)=O)cc2)C(Cl)(Cl)Cl)cc1 (stereo unspecified)
  A: -3.6%; B: .; C: 2%; D: -0.1%; E: 7%; F: 2%; G: 7%

In the list so far, four contain a Cl atom:
Abbreviations: A = HIV peptide binding; B = NOD1 inhibition; C = HEK293 NOD2/NF-kB; D = GPR55 beta-arrestin; E = GPR55 LPI antagonism; F = Rac1 GTP hydrolysis; G = Large T inhibition
14. CC1=NS(=O)(=O)c2cc(Cl)ccc2N1
  A: -1.2%; B: 36%; C: 6%; D: -0.2%; E: 4%; F: 4%; G: 3%&19%

20. C=C(CC)C(=O)c1ccc(OCC(=O)O)c(Cl)c1Cl
  A: 15%; B: -44%; C: -14%; D: -0.2%; E: 19%; F: 5%; G: >100µM*

21. CCCCc1nc(Cl)c(CO)n1Cc1ccc(-c2ccccc2-c2nnn[nH]2)cc1
  A: .; B: .; C: .; D: .; E: .; F: 0%; G: 8%

24. COc1ccc(C(=O)NC(NC(=S)Nc2ccc(S(N)(=O)=O)cc2)C(Cl)(Cl)Cl)cc1 (stereo unspecified)
  A: -3.6%; B: .; C: 2%; D: -0.1%; E: 7%; F: 2%; G: 7%

Retrieved by structure from the entries so far (2):
Abbreviations: A = HIV peptide binding; B = NOD1 inhibition; C = HEK293 NOD2/NF-kB; D = GPR55 beta-arrestin; E = GPR55 LPI antagonism; F = Rac1 GTP hydrolysis; G = Large T inhibition
14. CC1=NS(=O)(=O)c2cc(Cl)ccc2N1
  A: -1.2%; B: 36%; C: 6%; D: -0.2%; E: 4%; F: 4%; G: 3%&19%

15. Nc1ccn([C@@H]2O[C@H](CO)[C@@H](O)[C@H]2O)c(=O)n1
  A: .; B: .; C: .; D: .; E: .; F: -7%; G: .

From PubChem BioAssay

These rows are one share of the data. The share of hits here may be higher or lower than overall.
